Screens as filed in PubChem.
Vaccinia inh: Vaccinia orthopox stage-specific inhibition; Vaccinia-infected cells, mCherry/Venus stage reporter fluorescence; active compounds read low; some inactives read as strong as hits; activity change (mCherry), % (no concentration beside the values); actives 0.01% (n = 89,000);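 active = mCherry past -33% and 40 or more points under the early reporter, replicates agreeing; inconclusive = past -33% without that gap or agreement; tested in A549 cells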;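 note: scaled between vehicle wells and reference inhibitor wells; 23 nL library stock went into each well; one replicate is shown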
Vaccinia inh Venus: recorded beside Vaccinia inh, whose call it bears; activity change (Venus), %; measured here: Venus reporter, other viral stage;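 negative = less Venus signal; first of two replicates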
Numbers without * were called inactive; u = inconclusive; x = not tested or not shown.

SMILES	Vaccinia inh	Vaccinia inh Venus
C[C@H](CO)N1C[C@H](C)[C@H](CN(C)Cc2ccc(Cl)c(Cl)c2)Oc2ccc(NC(=O)CCCCCC(=O)Nc3ccccc3N)cc2CC1=O	6.0	13.8
CCC(=O)N[C@@H]1C=C[C@H](CC(=O)NCC2CCCCC2)O[C@@H]1CO	-1.0	1.1
O=C(N[C@@H]1CC[C@H](CCNS(=O)(=O)c2ccccc2Cl)O[C@@H]1CO)c1ccccc1	5.9	-4.4
CN(C[C@H]1[C@@H](c2ccc(C3=CCCC3)cc2)[C@@H](CO)N1CCC(F)(F)F)S(C)(=O)=O	14.1	14.0
COc1ccccc1CNC(=O)C[C@H]1CC[C@@H]2[C@H](COC[C@H](O)CN2C(=O)Nc2ccc(F)cc2)O1	-6.9	-8.3
CS(=O)(=O)Nc1ccc2c(c1)[C@H]1C[C@@H](CC(=O)N3CCOCC3)O[C@H](CO)[C@H]1O2	6.4	7.9
CN1CCN(C(=O)C[C@@H]2CC[C@@H]3[C@H](COc4ccc(NC(=O)C5CCC5)cc4C(=O)N3C)O2)CC1	6.9	0.6
C[C@@H]1CCCCO[C@@H](CN(C)Cc2ccc(C(F)(F)F)cc2)[C@@H](C)CN([C@H](C)CO)C(=O)c2cc(NC(=O)c3ccncc3)ccc2O1	5.3	-2.8
CCCNC(=O)Nc1ccc2c(c1)C(=O)N(C)[C@H]1CC[C@H](CC(=O)Nc3ccc4c(c3)CCCC4)O[C@@H]1CO2	-32.1	-28.7
CNC(=O)C[C@@H]1CC[C@@H]2[C@H](COc3ccc(NC(=O)Nc4ccccc4)cc3C(=O)N2C)O1	-3.6	3.7
O=C(Nc1ccc(F)cc1)N1CC(=O)N2[C@@H](CO)[C@H](c3ccc(C#Cc4cccnc4)cc3)[C@@H]2C1	0.1	5.5
CCCC(=O)Nc1ccc2c(c1)C(=O)N(C)[C@H]1CC[C@@H](CC(=O)Nc3cn(C)nc3C)O[C@@H]1CO2	4.8	3.4
CC=Cc1ccc2n(c1=O)C[C@@H]1[C@@H](CO)[C@H](C(=O)N(C)C)[C@H]2N1C(=O)c1ccccc1 (mixture of isomers)	3.0	-2.4
CC(=O)N(C)C[C@@H]1Oc2cc(C#CCC(C)C)ccc2S(=O)(=O)N([C@H](C)CO)C[C@H]1C	-4.4	-2.0
C[C@@H]1CCCCO[C@H](CN(C)CC2CCCCC2)[C@H](C)CN([C@@H](C)CO)C(=O)c2cc(NS(=O)(=O)c3ccccc3)ccc2O1	u	x
C[C@H]1CN([C@@H](C)CO)C(=O)c2cc(NC(=O)Nc3ccc(C(F)(F)F)cc3)ccc2O[C@@H]1CN(C)Cc1ccc(-c2ccccc2)cc1	-21.7	-19.7
COc1ccccc1-c1ccc([C@@H]2[C@@H](C#N)N(C(=O)C3CC3)[C@H]2CO)cc1	-21.5	-7.6
O=C(C[C@H]1CC[C@H]2[C@@H](COC[C@H](O)CN2S(=O)(=O)c2ccccc2)O1)NCc1ccc2c(c1)OCO2	1.8	0.2
C[C@H]1CN([C@@H](C)CO)C(=O)c2ccccc2-c2ccccc2CO[C@H]1CN(C)C(=O)c1ccc(F)cc1	11.0	-0.2
C[C@@H]1CN([C@H](C)CO)C(=O)c2cc(-c3ccccc3)cnc2O[C@H]1CN(C)C(=O)Cc1ccccn1	20.2	6.4
N#Cc1ccc(-c2ccc3c(c2)[C@@H]2[C@@H](CCN2C(=O)c2ccccc2F)[C@@H](CO)N3)cc1	9.1	10.9
CN(C)C(=O)C[C@@H]1C[C@H]2c3cc(NS(C)(=O)=O)ccc3O[C@H]2[C@H](CO)O1	6.9	10.4
CO[C@H]1CN(C)C(=O)c2cc(NC(C)=O)ccc2OC[C@@H](C)N(Cc2cc(F)ccc2F)C[C@@H]1C	1.1	-2.2
O=C(C[C@H]1CC[C@H]2[C@@H](COC[C@H](O)CN2S(=O)(=O)c2ccccc2)O1)Nc1ccccc1	4.0	12.0
CC=Cc1ccc2n(c1=O)C[C@@H]1[C@@H](CO)[C@H](C(=O)N[C@H](C)c3ccccc3)[C@H]2N1Cc1ccncc1 (mixture of isomers)	-2.1	2.5

(next part)
SMILES	Vaccinia inh	Vaccinia inh Venus
CCCNC(=O)Nc1ccc2c(c1)OC[C@@H](C)N(Cc1ccncc1)C[C@H](C)[C@H](OC)CN(C)C2=O	9.8	3.5
CCCN(C)C[C@H]1Oc2ncc(-c3cccnc3)cc2C(=O)N([C@H](C)CO)C[C@H]1C	13.2	3.7
CCCC#Cc1ccc([C@H]2[C@H](CO)N3C(=O)CN(C(=O)c4ccncc4)C[C@@H]23)cc1	20.7	12.6
O=C(C[C@@H]1CC[C@H]2[C@@H](COC[C@H](O)CN2CCC(F)(F)F)O1)N1CCC(Cc2ccccc2)CC1	10.1	1.6
CCCC#Cc1ccc([C@@H]2[C@@H](C#N)N(S(C)(=O)=O)[C@@H]2CO)cc1	15.2	7.3
CC(C)C#Cc1cnc2c(c1)C(=O)N([C@@H](C)CO)C[C@@H](C)[C@H](CN(C)Cc1ccc3c(c1)OCO3)O2	-20.6	-18.8
Cc1noc(C)c1NC(=O)N(C)C[C@H]1Oc2ccc(NC(=O)Nc3ccc(F)cc3)cc2C(=O)N([C@@H](C)CO)C[C@@H]1C	2.8	10.1
C[C@H](CO)N1C[C@H](C)[C@H](CN(C)S(=O)(=O)c2ccc(F)cc2)Oc2c(NC(=O)c3ccc(-c4nccs4)cc3)cccc2C1=O	u	x
COCC(=O)N1CC(=O)N2[C@@H](CO)[C@H](c3ccc(-c4ccccc4)cc3)[C@@H]2C1	16.3	5.0
C[C@H](O)C#Cc1ccc([C@@H]2[C@H](CO)N3CCCCN(CC4CC4)C[C@@H]23)cc1	10.1	6.8
COc1ccc(S(=O)(=O)Nc2cccc3c2O[C@H](CN(C)Cc2ccc(C(F)(F)F)cc2)[C@@H](C)CN([C@@H](C)CO)C3=O)cc1	-11.1	-10.4
C[C@@H]1CN([C@@H](C)CO)C(=O)c2cc(NS(=O)(=O)c3ccccc3)ccc2O[C@@H](C)CCCCO[C@@H]1CN(C)C(=O)Nc1ccc2c(c1)OCO2	-5.9	-3.5
COc1ccccc1CN1[C@@H](CO)[C@@H](c2ccccc2)C12CN(C(=O)c1ccccn1)C2	-2.6	-3.3
CO[C@H]1CN(C)C(=O)c2cc(NC(=O)C3CCCCC3)ccc2OC[C@@H](C)N(Cc2cccnc2)C[C@@H]1C	-21.4	-14.2
C[C@@H]1CN([C@@H](C)CO)C(=O)Cc2cc(NC(=O)c3ccncc3)ccc2O[C@@H]1CN(C)C(=O)Nc1cccc2ccccc12	19.2	18.9
O=C(Nc1ccccc1)N1C[C@H]2[C@@H](c3ccccc31)[C@H](CO)N2C(=O)Cc1ccccn1	-11.2	-4.8
C[C@@H]1CN([C@H](C)CO)C(=O)Cc2cc(NC(=O)C3CCCCC3)ccc2O[C@@H]1CN(C)Cc1ccc(-c2ccccc2)cc1	-20.6	0.8
C[C@@H]1CN([C@H](C)CO)C(=O)c2cccc(NC(=O)C3CCCCC3)c2O[C@@H]1CN(C)C(=O)NC1CCCCC1	3.9	2.0
CN1CCN(C(=O)C[C@@H]2CC[C@@H]3[C@@H](COc4ccc(NC(=O)C5CCCCC5)cc4C(=O)N3C)O2)CC1	-1.9	-9.5
C[C@H]1CN([C@@H](C)CO)C(=O)c2cc(NC(=O)Cc3cn(C)c4ccccc34)ccc2O[C@H]1CN(C)Cc1ccc(C(=O)Nc2ccccc2N)cc1	27.6	5.7
CC(C)NC(=O)Nc1ccc2c(c1)CC(=O)N([C@@H](C)CO)C[C@H](C)[C@H](CN(C)S(=O)(=O)c1cccs1)O2	23.9	12.0
O=C(C[C@H]1C[C@@H]2c3cc(NC(=O)NC4CCCC4)ccc3O[C@@H]2[C@@H](CO)O1)NCC1CC1	20.4	11.3
CCCC(=O)N1CCC2(CC1)CN(C(=O)C1CCCCC1)[C@H](CO)c1[nH]c3cc(OC)ccc3c12	-5.6	-4.8
COc1ccc(C(=O)Nc2ccc3c(c2)C(=O)N(C)C[C@@H](OC)[C@@H](C)CN[C@@H](C)CO3)cc1	-4.7	1.0
C/C=C/c1ccc([C@H]2[C@@H](CO)N3CCCCN(C(=O)Nc4ccc(OC)cc4)C[C@@H]23)cc1	u	x

Later entries
SMILES	Vaccinia inh	Vaccinia inh Venus
C[C@@H]1CCCCO[C@@H](CN(C)C(=O)c2ccccc2)[C@@H](C)CN([C@H](C)CO)C(=O)c2cc(NS(=O)(=O)c3cccs3)ccc2O1	7.4	3.2
C[C@H]1CN([C@@H](C)CO)C(=O)c2cc(-c3cccc(F)c3)cnc2O[C@@H]1CN(C)C(=O)c1cnccn1	35.7	7.4
COc1ccc(S(=O)(=O)N(C)C[C@H]2OCCCC[C@H](C)Oc3ccc(NC(=O)Cc4ccccc4)cc3C(=O)N([C@@H](C)CO)C[C@H]2C)cc1	-2.4	-3.3
CCNC(=O)C[C@H]1CC[C@@H]2[C@H](COC[C@H](O)CN2S(=O)(=O)c2ccc(Oc3ccccc3)cc2)O1	14.8	6.4
C[C@H]1CN([C@@H](C)CO)C(=O)c2ccccc2-c2ccccc2CO[C@H]1CN(C)C(=O)[C@@H]1CCCN1C	10.6	8.4
COc1ccc(NC(=O)N(C)C[C@@H]2Oc3ncc(C#CCC(C)C)cc3C(=O)N([C@@H](C)CO)C[C@@H]2C)cc1	-8.3	1.1
C[C@@H](NC(=O)C[C@@H]1C[C@@H]2c3cc(NC(=O)NC4CCCC4)ccc3O[C@@H]2[C@@H](CO)O1)c1ccccc1	3.7	7.9
C[C@H](CO)N1C[C@H](C)[C@H](CN(C)S(=O)(=O)c2cccs2)Oc2c(NC(=O)c3nc4ccccc4s3)cccc2C1=O	-9.7	-10.2
CCCNC(=O)N1CC2(C1)[C@H](c1ccccc1)[C@@H](CO)N2C(=O)C1CCCCC1	14.8	13.8
COc1ccc(NC(=O)Nc2cccc3c2O[C@H](CN(C)Cc2ccc(C(=O)O)cc2)[C@@H](C)CN([C@H](C)CO)C3=O)cc1	1.4	-0.7
CC(C)NC(=O)N(C)C[C@H]1Oc2c(NC(=O)C3CC3)cccc2C(=O)N([C@H](C)CO)C[C@@H]1C	4.5	9.9
O=C(N[C@@H]1CC[C@@H](CCNC(=O)C2CC2)O[C@H]1CO)c1ccncc1	-2.4	3.7
C[C@@H]1CN([C@H](C)CO)C(=O)c2cc(C#CC3CCCC3)cnc2O[C@H]1CN(C)S(C)(=O)=O	-4.7	-7.2
C[C@@H]1CN([C@@H](C)CO)C(=O)c2ccccc2-c2ccccc2CO[C@@H]1CN(C)C(=O)Nc1ccc(-c2ccccc2)cc1	-22.6	-13.9
CO[C@@H]1CN(C)C(=O)c2cc(NC(=O)Cc3ccccc3)ccc2OC[C@H](C)N(CC2CC2)C[C@H]1C	4.9	-3.7
CN1CCN(C(=O)C[C@H]2CC[C@H]3[C@@H](COC[C@H](O)CN3S(=O)(=O)c3cccc(Cl)c3)O2)CC1	14.0	7.6
O=C(C[C@H]1CC[C@H](NC(=O)c2ccncc2)[C@@H](CO)O1)NCc1ccncn1	10.2	6.2
CC(C)NC(=O)Nc1ccc2c(c1)C(=O)N([C@H](C)CO)C[C@H](C)[C@H](CN(C)C(=O)NC1CCCCC1)O2	9.8	4.2
CCC(=O)N(C)C[C@H]1Oc2cc(-c3ccc(OC)cc3)ccc2S(=O)(=O)N([C@@H](C)CO)C[C@@H]1C	-2.5	3.4
C[C@@H]1CCCCO[C@@H](CN(C)S(=O)(=O)c2ccccc2)[C@H](C)CN([C@H](C)CO)C(=O)c2cc(NC(=O)CCC(F)(F)F)ccc2O1	-23.6	-22.1
COc1ccc2c3c([nH]c2c1)[C@H](CO)N(C(=O)Nc1ccc(F)cc1)CC31CCN(S(C)(=O)=O)CC1	4.1	1.6
COc1ccc(NC(=O)Nc2ccc3c(c2)C(=O)N([C@@H](C)CO)C[C@@H](C)[C@H](CN(C)S(=O)(=O)c2ccccc2)OCCCC[C@H](C)O3)cc1	-8.2	-15.9
CC(C)C#Cc1cnc2c(c1)C(=O)N([C@H](C)CO)C[C@H](C)[C@H](CN(C)C(=O)c1ccc3c(c1)OCO3)O2	6.0	4.5
O=C(C[C@@H]1C[C@H]2c3cc(NC(=O)C4CCOCC4)ccc3O[C@H]2[C@@H](CO)O1)NCC1CC1	20.7	12.6
O=C(C[C@H]1CC[C@H](NC(=O)Nc2cc(F)ccc2F)[C@H](CO)O1)Nc1ccc(-c2ccccc2)cc1	3.4	6.9

In a second layout: entries from further up.
| smiles | Vaccinia inh | Vaccinia inh Venus |
| --- | --- | --- |
| C[C@H](CO)N1C[C@H](C)[C@H](CN(C)S(=O)(=O)c2ccc(F)cc2)Oc2c(NC(=O)c3ccc(-c4nccs4)cc3)cccc2C1=O | u | x |
| C[C@@H]1CN([C@H](C)CO)C(=O)c2cc(-c3ccccc3)cnc2O[C@H]1CN(C)C(=O)Cc1ccccn1 | 20.2 | 6.4 |
| CCC(=O)N(C)C[C@H]1Oc2cc(-c3ccc(OC)cc3)ccc2S(=O)(=O)N([C@@H](C)CO)C[C@@H]1C | -2.5 | 3.4 |

Quoted at random: 5 compounds from above.
SMILES	Vaccinia inh	Vaccinia inh Venus
COc1ccc(S(=O)(=O)N(C)C[C@H]2OCCCC[C@H](C)Oc3ccc(NC(=O)Cc4ccccc4)cc3C(=O)N([C@@H](C)CO)C[C@H]2C)cc1	-2.4	-3.3
CCCNC(=O)N1CC2(C1)[C@H](c1ccccc1)[C@@H](CO)N2C(=O)C1CCCCC1	14.8	13.8
CC(C)NC(=O)Nc1ccc2c(c1)C(=O)N([C@H](C)CO)C[C@H](C)[C@H](CN(C)C(=O)NC1CCCCC1)O2	9.8	4.2
C[C@@H]1CN([C@H](C)CO)C(=O)c2cc(C#CC3CCCC3)cnc2O[C@H]1CN(C)S(C)(=O)=O	-4.7	-7.2
C[C@@H]1CCCCO[C@@H](CN(C)C(=O)c2ccccc2)[C@@H](C)CN([C@H](C)CO)C(=O)c2cc(NS(=O)(=O)c3cccs3)ccc2O1	7.4	3.2

Some of the compounds tested; rates above refer to the full screens.
